Assay outcomes as filed in PubChem.
Cruzain Triton – inhibitors of Trypanosoma cruzi cruzain with detergent; P25779; purified cruzain, Z-FR-AMC fluorescence, 0.01% Triton; Potency, µM, for inactives: max response, negative = inhibition, hits mostly inhibitors; 200,000 tested, 0.43% active;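 note: plate controls were neutral wells for no effect and buffer without enzyme for full effect; nearly all actives have a fitted effect of over 40% in size; top concentration of the series not given in the record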
Target sequence (P25779 123-467 limits assumed): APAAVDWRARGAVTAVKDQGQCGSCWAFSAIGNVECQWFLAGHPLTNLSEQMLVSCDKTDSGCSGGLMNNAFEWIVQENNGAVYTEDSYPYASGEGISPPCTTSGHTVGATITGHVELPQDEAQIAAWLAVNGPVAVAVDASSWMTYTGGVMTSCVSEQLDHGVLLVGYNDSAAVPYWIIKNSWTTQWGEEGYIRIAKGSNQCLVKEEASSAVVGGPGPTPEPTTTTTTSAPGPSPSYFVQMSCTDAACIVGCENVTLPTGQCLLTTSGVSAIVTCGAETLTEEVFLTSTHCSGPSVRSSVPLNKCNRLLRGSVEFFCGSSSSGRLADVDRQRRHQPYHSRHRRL
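Enzyme 1.5 nM, Z-FR-AMC 2 uM, NaOAc 100 mM pH 5.5, DTT 5 mM, Triton X-100 0.01%; 15 min RT compound preincubation; kinetic ex360/em450, 60 s delta.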
Cruzain inh noDet – blocks cruzain activity in detergent-free assay; purified cruzain, Z-FR-AMC fluorescence, no detergent; Potency, µM, inactives show max response, negative = inhibition, usual class: inhibitors; P25779; 200,000 tested, 2.3% active;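 note: plate controls were enzyme without inhibitor for no effect and buffer without enzyme for full effect; nearly all actives have a fitted effect of over 40% in size; top concentration of the series not given in the record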
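Detergent-free condition (0.00005% Triton X-100) in acetate buffer pH 5.5 with DTT. 1.5 nM enzyme and compound were pre-mixed 15 min, then 2 uM Z-FR-AMC substrate added; reaction progress from fluorescence change between first and third reads (60 s).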
NS1 function inh – inhibitors of influenza NS1 protein function | S. cerevisiae slowed by influenza A NS1, growth recovery by OD600 | 270,000 tested, 0.4% active | Potency, µM (highest dose often 46.1 µM), for the others: at the highest dose activity, positive = more growth | AID 2326; active means well fitted rising curve with a large enough effect; inconclusive means small, poorly fitted or top-dose-only effect; inactive means no such curve, though single readings can be large or run the other way; note: nearly all actives have a fitted effect of over 50% in size
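Growth recovery, yeast-based: influenza A NS1 expressed in S. cerevisiae causes slow growth, and suppressors are detected by OD600. The parent strain without NS1 is used as positive control.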
RE007 growth inh – less growth of the S. pombe RE007 Vpr strain; S. pombe RE007 Vpr strain, BacTiter-Glo ATP luminescence, 24 h; control for the full effect not named in the record; Potency, µM (titrated, usually from 92.2 µM), for the others: at the top dose activity change, negative = less growth; 360,000 tested, 0.21% active; active = well fitted falling curve with a large enough effect; inconclusive = small, poorly fitted or top-dose-only effect; inactive = no such curve, though single readings can be large or run the other way;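 note: % is set by controls: 0 for no effect and ±100 for the full control effect; nearly all actives have a fitted effect of over 50% in size; the assay follows cell death caused by Vpr and the record does not say whether a fall means rescue or toxicity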
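Fission yeast strain RE007, carrying one chromosomally integrated HIV-1 vpr copy, was seeded at OD 0.01 in PMG+AL medium with 23 nL pinned compound. After 24 h at 30 °C and 99% humidity, viability was read by BacTiter-Glo luminescence.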
SARS PLP yeast – blocks SARS-CoV papain-like protease in a yeast assay; Potency, µM (titrated, usually from 32.9 µM), for inactives: at the highest dose activity, positive = growth rescue; AID 485353; S. cerevisiae expressing SARS-CoV PLpro, growth rescue; control for the full effect not named in the record; 330,000 tested, 0.19% active; active means well fitted rising curve with a large enough effect; inconclusive means small, poorly fitted or top-dose-only effect; inactive means no such curve, though single readings can be large or run the other way; note: 0% is about no effect; nearly all actives have a fitted effect of over 55% in size; growth read by luminescence after 48 h
LASV entry inh – Lassa virus entry inhibition | Lassa virus pseudotype entry inhibition, cell reporter; control for the full effect not named in the record | Potency, µM (titrated, usually from 37.9 µM), inactives show at the highest dose activity change, negative = inhibition, usual class: inhibitors | 300,000 tested, 1.2% active; active means well fitted inhibition curve with a large enough effect; inconclusive means small, poorly fitted or top-dose-only effect, or effect the other way; inactive means flat fitted curve, though single readings scatter; tested in HEK293 cells; note: % is set by controls: 0 for no effect and ±100 for the full control effect; nearly all actives have a fitted effect of over 50% in size; luciferase read-out
Marburg entry inh – blocks Marburg virus binding to or entry into cells. Marburg virus pseudotyped entry inhibition, cell reporter; control for the full effect not named in the record; about a third of the inactives were read at about 46 µM. Potency, µM (titrated, usually from 37.8 µM), without a hit: top-dose activity change, negative = inhibition, usual class: inhibitors. 300,000 tested, 1.8% active. AID 540276; active = well fitted inhibition curve with a large enough effect; inconclusive = small, poorly fitted or top-dose-only effect, or effect the other way; inactive = flat fitted curve, though single readings scatter; tested in HEK293 cells; about a fifth of its hits are not listed in these tables; note: % is set by controls: 0 for no effect and ±100 for the full control effect; luciferase read-out
2A StopGo – lowers the luciferase signal of an FMDV 2A StopGo reporter. human cells with a luciferase reporter of 2A StopGo recoding; control for the full effect not named in the record. Potency, µM (titrated, usually from 57.9 µM), inactives show at the top dose signal change, negative = less light. 410,000 tested, 1.2% active. AID 1159524; active = well fitted falling curve with a large enough effect; inconclusive = small, poorly fitted or top-dose-only effect; inactive = no such curve, though single readings can be large or run the other way; tested in HEK293T cells; note: % is set by controls: 0 for no effect and ±100 for the full control effect; nearly all actives have a fitted effect of over 45% in size; luciferase light after 4 h
Numbers without * were called inactive; ? = inconclusive; / = not tested or not shown; & = joins results of further samples; [ ] = another dose, or the depositor's remark. Unless noted, calls come from the whole dose curve; as a rule, active = well fitted curve in the direction sought with a large enough effect; inconclusive = small, poorly fitted or top-dose-only effect, or another doubt; inactive = no such curve, though single readings can be large; an effect the other way counts as inactive or inconclusive. Potency is the fitted concentration of half-maximal effect.

SMILES	Cruzain Triton	Cruzain inh noDet	NS1 function inh	RE007 growth inh	SARS PLP yeast	LASV entry inh	Marburg entry inh	2A StopGo
CCCN1CCN(CCCNC(=O)C2CCCN(c3nnc(-n4cccc4)s3)C2)CC1 (centres undefined)	-8.4%	-1%	0%	-15%	-1%	12%	-4%	-7%
COc1ccccc1CC(=O)Nc1ccccc1O	2.7%	3%	4%	5%	1%	-2%	27%	8%
CC1CCN(C(=O)C2CC(c3ccc(F)cc3)=NO2)CC1 (centres undefined)	7.8%	5%	-11%	2%	0%	12%	?	56%[activator]
CC(=O)Cn1nnc2sc3c(c2c1=O)CCC(C(C)(C)C)C3 (centres undefined)	/	/	/	4%	-2%	/	3%[46.1 µM]	11%
CC(=O)NC(CC(C)C)C(=O)NC(=O)NCc1ccccc1 (centres undefined)	7.2%	-5%	8%	-20%	1%	-10%	-3%	-22%
COc1ccc(C2NCCc3[nH]cnc32)cc1 (centres undefined)	/	/	-1%	-16%	-1%	0%	0%[14.2 µM]	10%
COc1cc(CN(CC2CCCO2)C(=O)c2ccc(F)cc2)cc(OC)c1OC (centres undefined)	1.6%	5%	/	/	/	7%[46.1 µM]	-25%[46.1 µM]	-3%
COc1ccc(-c2c(C)oc3c(CN4CCN(C)CC4)c(O)ccc3c2=O)cc1	-3.0%	-4%	-2%	-1%	-1%	/	/	-10%
CCOc1ccccc1C(=O)OCC(=O)Nc1ccc(OC(F)F)cc1	-1.9%	-8%	-22%	1%	-12%	5%	-9%	?
CCNc1nc(NC(C)C)nc(NC(C)(C)C)n1	/	/	-45%	3%	-1%	/	/	-12%
CCOC(=O)c1sc(=S)n(CC)c1NC(=O)c1ccccc1C	/	/	-5%	-9%	2%	/	/	-14%
COc1ccccc1-c1c(C)nn2c(N)c(-c3ccccc3)cnc12	/	/	-51%	3%	-6%	-9%[46.1 µM]	?	-11%
COc1cccc(C(=O)COc2ccc(NC(=O)c3cccs3)cc2)c1	/	/	18%	13%	2%	?	?	9%
CC(=O)Nc1ccc(S(=O)(=O)Nc2ccc3c(c2)n(C)c(=O)n3C)c(C)c1	-0.6%	-6%	13%	2%	3%	-16%&27%[46.1 µM]	?	93%&85%[activator]
O=C(Cc1nc(-c2ccc(Br)s2)cs1)NCCN1CCOCC1	-6.9%	0%	-1%	6%	3%	-2%	1%	-22%
Cc1cc(C(=O)OCc2nnc(-c3ccccc3)o2)c(C)n1-c1ccccc1	-0.6%	-21%	5%	3%	8%	?	-30%	?
CCCCNC(=O)Cn1nc(N2CCN(c3ccccc3OC)CC2)ccc1=O	-0.5%	-6%	/	/	/	12%[46.1 µM]	/	0%
COc1ccccc1NS(=O)(=O)c1ccc2c(c1)N(C(C)=O)CC(C)S2 (centres undefined)	/	/	4%	5%	-3%	/	/	-25%
CCN1C(=O)/C(=C/c2nc3ccccc3c(=O)n2-c2ccc(C)cc2)c2ccccc21	-4.4%	?	8%	0%	4%	-19%	?	?
Cc1ccc(C(=O)OCC(=O)NCc2cccs2)s1	/	/	/	5%	-3%	-6%	-1%[46.1 µM]	4%
Cc1cc(NC(=O)c2ccco2)ccc1-n1cnnn1	5.5%	1%	-3%	13%	1%	6%	7%	27%
CCn1c2ccccc2c2c3ncc4cccn4c3ccc21	/	/	3%	-23%	0%	2%[46.1 µM]	13%[46.1 µM]	-3%
CN1CCC(=O)N(CCN=[N+]=[N-])CC1	/	/	27%	8%	9%	/	/	-6%
CCOC(=O)C1CCCN(CC(O)COCc2ccccc2OC)C1 (centres undefined)	/	/	6%	-8%	-1%	-2%[46.1 µM]	20%[46.1 µM]	-13%
COc1ccc(N2CCN(CC(=O)N3CCC(C)CC3)CC2)cc1	2.3%	-2%	-1%	8%	3%	-3%	7%	12%
O=[N+]([O-])c1cc(Cl)c(O)c(-[n+]2c(-c3ccccc3)cc(-c3ccccc3)cc2-c2ccccc2)c1	/	/	30%	4%	-4%	/	/	-18%
Cc1ccc(C(=O)ONC(=O)c2ccc(Cl)cc2)cc1[N+](=O)[O-]	/	/	-45%	0%	-5%	/	/	-7%
COc1ccc(CNC(=O)c2ccc(Cn3cc(Br)cn3)o2)cc1	/	/	-23%	24%	-1%	/	/	0%
Cc1cccc(Nc2n[nH]c(=S)s2)c1C	-3.7%	-3%	-72%	1%	-2%	12%	-6%	/
Cn1c(CSc2nc3ccccc3s2)n[nH]c1=S	-0.4%	1%	-5%	-5%	2%	1%	18%	0%
Cc1nn2c(-c3ccco3)nnc2c2ccccc12	2.4%	-6%	-97%	-2%[3.69 µM]	/	-3%	-5%	-15%
CCCn1c(SCC(=O)Nc2cc(S(=O)(=O)N3CCOCC3)ccc2Cl)n[nH]c1=O	-3.8%	1%	18%	17%	4%	8%	-5%	-22%
C[C@H]([C@H](O)c1ccccc1)N(C)C(=O)CN	/	/	2%	-6%	1%	/	/	1%
COc1ccc(CNCc2cccc(Oc3ccccc3)c2)cc1	/	/	/	-4%	-2%	0%	-3%[46.1 µM]	-28%
Cc1cc(N)nc(SCC(=O)N2C(C)CCCC2C)n1 (centres undefined)	/	/	1%	-2%	-9%	-1%[46.1 µM]	4%[46.1 µM]	-5%
S=C(NCCc1ccccc1)Nc1ccccc1N1CCOCC1	/	/	-11%	10%	-2%	-14%[46.1 µM]	?	0%

Record cards, as listed above. Screens in order: Cruzain Triton	Cruzain inh noDet	NS1 function inh	RE007 growth inh	SARS PLP yeast	LASV entry inh	Marburg entry inh	2A StopGo
Profile of `CCCn1c(SCC(=O)Nc2cc(S(=O)(=O)N3CCOCC3)ccc2Cl)n[nH]c1=O` → -3.8%	1%	18%	17%	4%	8%	-5%	-22%
Profile of `COc1ccc(N2CCN(CC(=O)N3CCC(C)CC3)CC2)cc1` → 2.3%	-2%	-1%	8%	3%	-3%	7%	12%
Profile of `Cc1cccc(Nc2n[nH]c(=S)s2)c1C` → -3.7%	-3%	-72%	1%	-2%	12%	-6%	/

(cont.)
SMILES	Cruzain Triton	Cruzain inh noDet	NS1 function inh	RE007 growth inh	SARS PLP yeast	LASV entry inh	Marburg entry inh	2A StopGo
CC1CCC2(CC1)N=C(N)Nc1nc3ccccc3n12 (centres undefined)	1.9%	2%	-3%	-4%	1%	-8%	?	3%
CC1CCN(c2oc(-c3cccs3)nc2S(=O)(=O)c2ccc(Cl)cc2)CC1	-1.0%	1%	/	/	/	?	-18%[46.1 µM]	9%
CCc1ccc(C(=O)NNC(=O)OC)cc1	/	/	/	4%	2%	11%	6%	17%
CCOC(=O)c1ccc(COC(=O)c2cc3ccccc3oc2=O)o1	1.8%	-2%	-18%	-5%	0%	0%	12%	22%
O=C(Nc1ccccc1)C1=C[C@@H](c2ccccc2)C[C@@H](OCc2ccc(CO)cc2)O1	/	/	-1%	-7%	-3%	/	/	49%[activator]
O=c1c2ccccc2nc2c3ccccc3c(NCCN3CCOCC3)nn12	-5.8%	-6%	-1%	/	2%	/	-1%	/
Cc1ccccc1Nc1nnc(SCC(=O)NCC2CCCO2)s1 (centres undefined)	/	/	/	27%	4%	-1%	-20%	-13%
O=C(Cc1nnc(NC(=O)Nc2ccc(Cl)cc2)s1)NCc1ccccc1	1.0%	10µM*	10%	12%	?	1%	6%	-21%
COC(=O)c1ccc(/C=C2/SC(=S)N(CCCC(=O)Nc3ccccn3)C2=O)cc1	-7.5%	?	5%	-10%	-4%	-15%	?	-4%
Cc1cc(NS(=O)(=O)c2ccc(NC(=O)CCCOc3ccccc3C)cc2)no1	/	/	8%	17%	2%	-1%	3%	-6%
CCC(=NCCCn1ccnc1)c1c(O)n(Cc2ccccc2)c(=O)[nH]c1=O	7.5%	5%	1%	-16%	10%	4%	8%	-11%
O=C(OC1CCOC1=O)c1cc(-c2ccc(Cl)cc2)nc2ccccc12 (centres undefined)	-7.5%	8%	-5%	3%	-15%	-8%	?	9%
CCN(CC)C(=N)N1c2ccccc2CCC1C (centres undefined)	/	/	/	3%	2%	2%[46.1 µM]	-26%[46.1 µM]	-12%
Cc1cc(C)c2c(N)c(C(=O)Nc3cccc(C)c3C)sc2n1	/	/	3%	-6%	1%	-12%[46.1 µM]	?	8%
O=C(Nc1ccc(Cl)cc1)Nc1ccon1	/	/	-28%	6%	-3%	/	/	19%
Cc1ccc(Nc2nc(N/N=C/c3c[nH]c4ccccc34)nc(N3CCOCC3)n2)cc1	-6.1%	-4%	?	3%	-72%	15µM*	0.21µM*	?
CCn1cc(C(=O)NCCCOC(C)C)c(=O)c2cc(S(=O)(=O)N(C)C3CCCCC3)ccc21	-5.1%	?	/	/	/	-16%[46.1 µM]	?	30%[activator]
COc1ccc(C(=O)Nc2ccccc2C(=O)NCc2cccnc2)cc1	/	/	-9%	-1%	3%	-12%	?	0%
C=C(C)C(=O)Nc1cccc(C2=NOC3(C2)C[C@@H](C(N)=O)N(C(=O)c2cc([N+](=O)[O-])cc([N+](=O)[O-])c2C)C3)c1 (some centres undefined)	/	/	-20%	8%	1%	/	/	1%
Cc1ccc(S(=O)(=O)N(CC(=O)Nc2ccccc2C(=O)O)c2cccc(Cl)c2C)cc1	-24%	?	20%	7%	20%	-1%	-5%	-22%
O=C(c1cc(-c2ccc(Cl)cc2)nc2ccccc12)N1CCOCC1	/	/	/	3%	0%	12%	-6%	2%
O=C(Nc1nc2ccc(F)cc2s1)c1nc(SCc2ccccc2F)ncc1Cl	-1.8%	2%	/	/	/	6%[46.1 µM]	?	-23%
CCN(CC)c1ccc(C(=O)OCC(=O)NC(C)(C)C)cc1	/	/	-2%	1%	1%	?	0%[46.1 µM]	-11%
CCOC(=O)c1ccccc1NC(=O)N[C@@H](C)C(=O)OC	3.3%	-4%	2%	-8%	-16%	4%	1%	2%
Cc1cc(Cl)ccc1N1C(=O)CC(SCCC(=O)O)C1=O (centres undefined)	1.2%	-26%	6%	-8%	-22%	4%	-23%	6%
